Screening data (PubChem BioAssay)
Bead autofluor – counter-screen for toxin protease inhibitors: compound fluorescence; compound autofluorescence counterscreen, microsphere flow cytometry; active compounds read high; fluorescence intensity (no concentration beside the values); 360,000 compounds, 3.1% hits;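 active = at least 3 SD above the mean of all compounds, about 16000 in these data; inconclusive = too few beads counted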;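 also: 100 nL of 1 mM stock went into each well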
BJeLR lethal – MLPCN primary cell-based screen for lethality selective to Ras in HRASV12 cells; BJeLR (HRASV12) viability, CellTiter-Glo ATP luminescence, 48 h; reference of the scale not given here; inhibition, % (concentration not given with the values); 300,000 compounds, 0.17% hits; AID 1554, 2009;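 active = replicate mean above 50%; inconclusive = above 50% but judged a plate artefact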;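 also: 50 nL library stock added to about 25 µL; numbers are from one replicate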
PrP 5UTR inh – inhibition of PrP 5' UTR reporter expression | cell-based PrP 5' UTR mRNA reporter, plate reader | 340,000 compounds, 0.35% hits | inhibition, % (test concentration not listed);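 active = every replicate at 50% or more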;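 also: 0 = median of the neutral control wells; tested in H4 reporter cells; numbers are from one replicate; inactives centre near -14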
Mtb hypoxia rep – PubChem AID 1159583; M. tuberculosis hypoxia-regulated fluorescent reporter, fluorescence; fluorescence inhibition, % (no concentration beside the values); 300,000 compounds, 0.1% hits;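 active = 35 to 45% if threefold the growth effect, above 45% if 1.5-fold the growth effect; inactive = the rest, general growth blockers included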;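 also: wells of about 50 µL received 100 nL stock; 0% = vehicle wells and 100% = reference inhibitor wells; whole bacteria with a GFP reporter of the hypoxia response; strong numbers were not always called active; many hits fall short of the cut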
ugtP null kill – growth inhibition of ugtP-null S. aureus, primary screen, RN4220 ugtP deletion, OD600. 16 h; some inactives read as strong as hits. growth inhibition, % (concentration not given with the values). 330,000 compounds, 0.54% hits. AID 1259309, 2017;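 active = z-score under -3 and OD600 up to 0.15 on both plates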;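 also: plate controls were untreated wells for no effect and antibiotic for full effect; wells of about 80 µL received 100 nL stock; the first replicate is given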
RN4220 kill – growth inhibition of S. aureus RN4220, primary screen, OD600. 16 h. inhibition, % (test concentration not listed). 330,000 compounds, 0.33% hits. AID 1259311, 2017;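 active = z-score of -3 or lower and OD600 up to 0.18 on both plates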;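 also: plate controls were untreated cells for no effect and reference antibiotic for full effect; stock transfer was 100 nL into about 80 µL; one replicate is shown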
Mtb hypoxia rep growth – further read-out of Mtb hypoxia rep, marked with its call; growth inhibition, %; measured here: M. tuberculosis growth (absorbance);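 0% = vehicle and 100% = reference antibiotic; read after six days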
Active calls of the source: *; ? = inconclusive; . = not tested or not shown.

The opening 4 compounds as a preview:
Order of values – Bead autofluor, BJeLR lethal, PrP 5UTR inh, Mtb hypoxia rep, Mtb hypoxia rep growth, ugtP null kill, RN4220 kill
1. COc1cccc(-c2nn(-c3ccccc3)cc2/C=C\C(=O)c2cccs2)c1
  2626, 2, -20, 7, 11, 0, 17
2. COC(=O)c1ccc2[nH]c3cccc(/C(=C/c4ccccc4)c4ccccc4)c3c2c1
  4269, -2, -15, ., ., ., .
3. COc1ccc(C(=O)Nc2nnc(Cc3ccc(OC)c(OC)c3)s2)cc1
  4131, 4, -19, 2, 0, 5, 2.3
4. COCCCNC(=O)CSc1ccsc1[N+](=O)[O-]
  2109, ., -3, -7, 5, 6, 2.9

This part in full, repeating the preview:
Order of values – Bead autofluor, BJeLR lethal, PrP 5UTR inh, Mtb hypoxia rep, Mtb hypoxia rep growth, ugtP null kill, RN4220 kill
1. COc1cccc(-c2nn(-c3ccccc3)cc2/C=C\C(=O)c2cccs2)c1
  2626, 2, -20, 7, 11, 0, 17
2. COC(=O)c1ccc2[nH]c3cccc(/C(=C/c4ccccc4)c4ccccc4)c3c2c1
  4269, -2, -15, ., ., ., .
3. COc1ccc(C(=O)Nc2nnc(Cc3ccc(OC)c(OC)c3)s2)cc1
  4131, 4, -19, 2, 0, 5, 2.3
4. COCCCNC(=O)CSc1ccsc1[N+](=O)[O-]
  2109, ., -3, -7, 5, 6, 2.9
5. O=C(OCC(=O)C12CC3CC(CC(C3)C1)C2)c1ccc(O)cc1O
  6647, -3, -21, 10, 9, 1, -6.3
6. COc1ccc(-c2cc([C@H]3[C@@H]4C=CCC[C@@]4(C)C(=O)N3Cc3ccccc3)ccc2F)cc1OC
  3731, -2, -10, ., ., ., .
7. CCC(C)N1CC(=O)N2Cc3[nH]c4ccccc4c3C[C@H]2C1=O (stereo partly specified)
  3462, -3, -9, -6, 11, 1, 2.4
8. CCC(=O)Nc1c(S(=O)(=O)c2ccc(C)cc2)c2nc3ccccc3nc2n1C(C)c1ccccc1 (stereo unspecified)
  2205, -3, -8, -5, -4, -1, 1.8
9. O=C(NC1CCN(Cc2ccccc2)CC1)c1ccccc1NS(=O)(=O)c1ccc(F)cc1
  6250, ., -14, 4, 7, 4, 7.1
10. CC1(C(=O)OCC(=O)Nc2nnc(-c3ccccc3)o2)CC1(Cl)Cl (stereo unspecified)
  ?, 11, -15, -9, 10, 0, 17
11. COc1ccccc1C(=O)Nc1ccccc1C(=O)NCc1ccco1
  4652, -3, 4, 3, -1, 14, 7.4
12. Cc1cccc(N2CCN(Cc3cnc(Cl)s3)CC2C)c1 (stereo unspecified)
  4759, 2, 4, 6, 4, 4, 7.6
13. CCOC(=O)c1ccc(NC(=O)c2cccc(C)c2[N+](=O)[O-])cc1
  2781, 2, -23, 3, -6, 3, 1.5
14. O=C(COc1ccc(S(=O)(=O)N2CCOCC2)cc1)NCCc1ccccc1
  5843, -3, -26, -1, 3, 0, 2.3
15. COc1ccc2c(c1)C[C@]1(C)c3ccccc3C(=O)N(Cc3ccccc3)C21 (stereo partly specified)
  ., ., ., 3, 15, -3, -1.7
16. Cn1ccnc1SCc1cn2cc(Br)ccc2n1
  3031, 7, -4, 8, 7, -3, -9.0
17. CCc1cc2c(=O)c(-c3cscn3)coc2cc1O
  5011, 2, -44, ., ., 2, -0.4
18. COc1ccc(C2=CC(=O)C[C@H](COCc3ccccc3)N(C(=O)OC(C)(C)C)O2)cc1
  2988, ., -3, 2, -2, 16, 0.3
19. Cc1sc2c(c1C)c(=O)n(-c1ccccc1)c(=O)n2CC(=O)NCC1CCCO1 (stereo unspecified)
  5716, 0, 5, -5, 8, 6, 4.5
20. CN(C)C(=O)c1nc2ccc(Cl)cn2c1CNCc1ccccc1OC(F)(F)F
  4544, 1, -15, 0, 4, -1, 4.1
21. O=C(NC(Nc1nc2ccc([N+](=O)[O-])cc2s1)(C(F)(F)F)C(F)(F)F)c1cccnc1
  2007, 34, 5, ., ., 29, 41
22. CC(C)C[C@H]1C(=O)N2CCC[C@H]2[C@]2(O)O[C@](NC(=O)C3C=C4c5cccc6[nH]c(Br)c(c56)C[C@H]4N(C)C3)(C(C)C)C(=O)N12 (stereo partly specified)
  5861, -5, -4, ., ., ., .
23. COc1cccc(C2=CC(c3ccc(OC)c(OC)c3)NC(=S)N2)c1 (stereo unspecified)
  ., -4, ., -2, -4, 5, 1.7
24. COCCN(C(=O)Cc1coc2cc(C)c(C)cc12)c1c(N)n(Cc2ccccc2)c(=O)[nH]c1=O
  4431, 4, -18, 2, 5, 2, 6.7
25. CC1CCCC(C)N1C(=O)COC(=O)c1ccc2c(c1)OCO2 (stereo unspecified)
  2388, 0, -29, 3, 4, 17, 9.7
26. N=c1n(CC(=O)c2ccc(Br)cc2)c2ccccc2n1Cc1ccccc1
  3765, ., -14, -3, 0, -7, 3.2
27. COc1ccccc1C(=O)COC(=O)C(NC(=O)Cc1ccccc1)C(C)C (stereo unspecified)
  5056, ., -8, -3, -1, 3, 2.7
28. COc1ccc(N2C(=O)c3ccccc3NC23CCCCC3)cc1
  7732, 4, -111, 12, 12, 7, 3.0
29. Cc1ccc(S(=O)(=O)Nc2ccccc2-c2ccccc2)cc1
  4063, 12, -20, 24, 10, 3, 17
30. N#Cc1c(N)nc2c(c1-c1ccncc1)CCCCC2
  16184*, 0, 8, 3, 5, 1, -0.2
31. N#Cc1c(NC(=O)C(=O)NCCCN2CCOCC2)sc2c1CCCC2
  6068, 9, 1, 8, 1, 0, 1.1
32. CCOC(=O)C(C#N)=NNc1ccccc1C(=O)O
  ., ., ., 0, 9, 7, 5.1
33. COc1cccc(/C=C/C(=O)OCC(=O)NCC2CCCO2)c1OC (stereo unspecified)
  2431, -7, -33, 8, -3, 5, 3.1
34. CN1c2cccc3cccc(c23)N(C)C1c1cccs1
  4624, -8, -11, 24, 16, 2, 3.5
35. C/C(=N\NC(=O)Cc1ccccc1)c1ccc(Br)s1
  3932, -5, -13, ., ., ., .
36. CCn1c(CN2CCCCC2)nc2cc(S(=O)(=O)N3CCCCC3)ccc21
  6252, ., -16, 3, 0, 4, 2.4
37. Cc1cccc(NC(=S)N2CCOCC2)c1C
  2559, -5, -9, -7, -5, 3, 3.7
38. CC1(c2cccc(Br)c2)NC(=O)NC1=O (stereo unspecified)
  3563, -9, -9, -4, -2, 6, -3.4
39. CCOC(=O)C1=CN(Cc2cccc(F)c2)S(=O)(=O)N(C)C1c1ccc(C(F)(F)F)cc1 (stereo unspecified)
  3531, ., -11, -1, 0, -12, -5.2
40. CCOC(=O)c1ccc(N2CCOCC2)c(NC(=O)COCC(=O)O)c1
  4166, 6, -17, -2, 0, 2, 1.1
41. Cc1cc(C(=O)CSc2nc(N)cc(N)n2)c(C)n1CCc1ccc(F)cc1
  3989, -1, -4, ., ., 6, 2.4
42. CCOc1ncccc1C(=O)OCC(=O)c1c(N)n(C)c(=O)n(C)c1=O
  1975, -3, -16, ., ., 3, -0.1
43. CC1Oc2ccccc2N(CC(=O)NCc2cccs2)C1=O (stereo unspecified)
  10431, 1, -24, 6, 6, 3, 2.9
44. CCOC(=O)c1ccc(NC(=S)N2CCSC2c2ccc(Cl)cc2)cc1 (stereo unspecified)
  2022, -5, -12, 1, 12, -9, -13
45. Cc1ccc(C)c(N2C(=O)c3cc(N4CCOCC4)c([N+](=O)[O-])cc3C2=O)c1
  2893, -12, -16, 7, 1, -2, 1.3
46. COc1cc(/C=C(/C#N)c2nc3ccccc3[nH]2)ccc1Oc1ncccc1[N+](=O)[O-]
  8327, -9, -43, 6, -2, -1, 3.3
47. COC(=O)/C=C1\NCCSC1=O
  17208*, -19, -9, -3, -7, 2, 1.5
48. CC(CNC(=O)COc1ccccc1)OC(=O)Nc1ccc(Cl)c(Cl)c1 (stereo unspecified)
  2103, 3, -1, 13, 2, -6, 6.7
49. Cc1cccc(NCc2cc(Cl)ccc2O)n1
  11622, 1, -22, 0, -8, 27, 1.1
50. COCCN1C(=O)N[C@@H](c2cccs2)C(C(=O)OC)=C1C
  3490, -10, -7, ., ., ., .
51. CCOC(=O)c1nnc(-c2ccccc2)nc1Oc1ccc(Cl)cc1
  2602, 15, -70, ., ., -3, 3.2
52. CCC(Oc1nc2ccccc2nc1-c1ccccc1NC(C)=O)C(=O)c1ccccc1 (stereo unspecified)
  8282, 0, -12, 0, -7, 2, -1.4
53. Cc1ccc(-n2c(O)c(C=NCc3ccccn3)c(=O)[nH]c2=S)cc1
  4414, 7, -4, 0, 9, 4, 2.0
54. COc1ccc(C=NNC(=O)CCCC(=O)NC2CCCCC2)cc1
  ., ., ., 5, 4, 3, 3.3
55. Cc1cccc(OCCNc2ccc(C(F)(F)F)cc2[N+](=O)[O-])c1
  2401, 0, -31, 5, 5, -3, 3.6
56. CC1CCN(CC(=O)N2CCCc3c2c(=O)oc2ccc(OCc4ccccc4)cc32)CC1
  2534, 8, -2, ., ., 13, 14
57. O=C(Nc1nc2c(s1)CCCC2)Oc1ccccc1
  4174, -7, -8, ., ., -3, -0.3
58. CCN(CCCNC(=O)CNC(=O)c1nn(-c2ccc(OC)cc2OC)c(=O)c2ccccc12)c1cccc(C)c1
  6035, -3, -17, 12, 2, -3, 0.8
59. C#Cc1ccc([C@@H]2C=C(C(=O)NC3CC3)O[C@H](OCCCCO)C2)cc1
  4083, 2, -1, ., ., ., .
60. Cc1nc2ccccc2c(C(=O)O)c1-c1ccccn1
  3814, ., -13, 17, 10, 3, 2.8

Following part
Order of values – Bead autofluor, BJeLR lethal, PrP 5UTR inh, Mtb hypoxia rep, Mtb hypoxia rep growth, ugtP null kill, RN4220 kill
61. Cc1ccc(CN2CCC3CCC(C3)C2)c(O)c1 (stereo unspecified)
  3606, ., -34, 7, 8, -3, 1.6
62. COc1ccc(NC(=S)N2CCN(C(=O)c3ccco3)CC2)cc1OC
  4860, 2, -3, 11, 13, 2, -0.1
63. Cc1nonc1C1CCCN1Cc1cn[nH]c1-c1ccc(-c2ccccc2)cc1 (stereo unspecified)
  4622, 8, -18, ., ., ., .
64. O=C(CCCn1c(SCc2ccccc2F)nc2ccccc2c1=O)NCC1CCCO1 (stereo unspecified)
  4461, 11, -20, 9, -3, -6, -4.6
65. CC1(c2ccc3ccccc3c2)NC(=O)NC1=O (stereo unspecified)
  3882, 1, -9, 15, 7, 7, 4.7
66. CCOC(=O)C(=O)Nc1cc(C)nn1-c1nc2ccccc2[nH]1
  5228, 4, -19, 16, 7, 8, 4.0
67. COc1cc(/C=N/NC(=O)C2C3CCCCC32C)cc(Br)c1O (stereo unspecified)
  10633, 10, -16, ., ., ., .
68. O=C(Cn1nc(-c2ccc3c(c2)OCCO3)ccc1=O)Nc1ccc(-n2cnnn2)cc1
  3968, 7, 27, ., ., ., .
69. CCC(=O)c1ccc(OCC(=O)OCC(=O)NC2CCCCCCC2)cc1
  5577, 2, -18, -4, -2, 1, 1.0
70. COCCCN1C(=O)/C(=C/c2ccc(CNS(=O)(=O)c3ccccc3)o2)C(C(=O)OC)=C1C
  4735, 0, -5, 3, 7, -1, 3.7
71. CN(C)CCCNC(=O)/C(=C\c1ccc(-c2ccc(Br)cc2)o1)NC(=O)c1ccccc1
  1943, 6, -19, 13, 12, -5, -0.1
72. Cc1cccc(OCc2nnc(SCn3nnc4ccccc4c3=O)o2)c1
  4064, -4, -12, 2, 3, -9, 7.7
73. O=C1C2CC3CCC2(O3)C2OCCCN12 (stereo unspecified)
  ., ., ., 13, 9, -12, 1.4
